MT1-MMP reporter: inhibitors of MT1-MMP promoter transcription, cell-based, luciferase reporter, luminescence (AID 618). MT1-MMP promoter luciferase reporter cells, luminescence. calls from a first round at 10 µM; hits with a dose series show EC50 in µM. 87,000 compounds, 0.62% hits;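 active means over half of the reporter light lost at 10 µM or EC50 under 50 µM; inactive means the rest and hits that failed the dose series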;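 further: actives suppress MT1-MMP promoter-driven transcription so potencies describe inhibitors; HT1080 fibrosarcoma cells; overnight exposure; toxic or luciferase-blocking compounds were not removed from the actives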
WNV NS2B-NS3 inh: WNV NS2B-NS3 proteinase inhibition; WNV NS2B-NS3 protease, fluorogenic substrate Ex360/Em465; hits give low values; z-score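 (tested at a level between 10 and 100 µM)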; 65,000 compounds, 0.18% hits;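 active means z-score at -3 or under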;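 further: score is relative to mean and spread of the compound wells of a plate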
Target sequence (P06935 1371-1501 limits assumed): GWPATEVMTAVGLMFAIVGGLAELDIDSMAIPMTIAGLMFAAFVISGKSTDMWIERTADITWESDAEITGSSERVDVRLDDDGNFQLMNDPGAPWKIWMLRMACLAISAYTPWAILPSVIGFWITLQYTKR
Target sequence (P06935 1502-1679 limits assumed): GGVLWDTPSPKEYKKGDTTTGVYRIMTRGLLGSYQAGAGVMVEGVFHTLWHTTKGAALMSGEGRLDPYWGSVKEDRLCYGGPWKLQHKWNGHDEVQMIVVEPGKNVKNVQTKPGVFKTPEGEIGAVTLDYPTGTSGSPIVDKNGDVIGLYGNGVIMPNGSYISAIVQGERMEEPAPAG
Hsc70 ATP site: small molecules displacing fluorescent ligand from Hsc70 – biochemical, fluorescence polarization, primary screen (AID 568); 83,000 tested, under 10 active; displacement, % at 20 µM, or IC50 in µM where a hit was titrated; Hsc70 fluorescence polarization, probe displacement; higher % means a stronger effect; strong numbers were not always called active;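 active means displacement above 50% without optical interference and an IC50 on retest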;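 further: ATPase domain with a fluorescein-tagged ATP probe; 0% = vehicle and 100% = excess ADP; read after one hour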
Numbers without * were called inactive.

For CC1(C)CC(=O)C=C(Nc2ccccc2F)C1 the results were MT1-MMP reporter inactive, WNV NS2B-NS3 inh -0.71 and Hsc70 ATP site -2.6%.
COc1ccccc1CNC(=O)C(CCSC)NS(=O)(=O)c1ccc2c(c1)oc(=O)n2C (stereo unspecified) was read as MT1-MMP reporter inactive, WNV NS2B-NS3 inh -0.25 and Hsc70 ATP site -1.2%.
For CC(C)c1ccccc1OCC(=O)NCC(c1cccs1)N1CCOCC1 (stereo unspecified) the results were MT1-MMP reporter inactive and Hsc70 ATP site -5.0%.
Screening COC(=O)c1cc(NC(=O)c2cc(C)oc2C)cc(C(=O)OC)c1 returned MT1-MMP reporter inactive and Hsc70 ATP site 2.0%.
For COc1ccc(CC(NC(C)=O)C(=O)NC2CCN(c3nc(C)cc(C)c3C#N)CC2)c(OC)c1 (stereo unspecified) the results were MT1-MMP reporter inactive, WNV NS2B-NS3 inh 1.1 and Hsc70 ATP site -2.2%.
COCCn1nnnc1C(c1ccc(OC)cc1OC)N1CCN(c2ccccc2)CC1 (stereo unspecified) was read as MT1-MMP reporter inactive, WNV NS2B-NS3 inh -0.05 and Hsc70 ATP site 7.9%.
`CC(C)C(=O)Nc1cccc(C(=O)Nc2nnc(C(C)(C)C)s2)c1` gave MT1-MMP reporter inactive and Hsc70 ATP site -0.7%.
Screening COc1ccc2oc(C(F)(F)C(F)(F)F)cc(=O)c2c1 returned MT1-MMP reporter inactive and Hsc70 ATP site 1.7%.
O=C(CCC(=O)Nc1nnc(C2CCCCC2)s1)NCc1cccs1 was read as MT1-MMP reporter inactive, WNV NS2B-NS3 inh -0.31 and Hsc70 ATP site 0.6%.
Screening O=C(CN(Cc1ccc2c(c1)OCO2)C(=O)c1cnsn1)NC1CCCC1 returned MT1-MMP reporter inactive, WNV NS2B-NS3 inh 1.3 and Hsc70 ATP site -4.5%.
Screening CCc1ccc2[nH]c(=O)c(C(c3nnnn3CCOC)N3CCN(c4ccccc4F)CC3)cc2c1 (stereo unspecified) returned MT1-MMP reporter inactive, WNV NS2B-NS3 inh -0.61 and Hsc70 ATP site -1.9%.
O=C(Nc1nnc(-c2cccs2)o1)c1ccco1 was read as MT1-MMP reporter inactive, WNV NS2B-NS3 inh 0.91 and Hsc70 ATP site 5.0%.
Screening O=C1CCCC(O)=C1C=NCCc1ccccc1 returned MT1-MMP reporter inactive, WNV NS2B-NS3 inh 0.5 and Hsc70 ATP site 6.0%.
`CCOc1ccc(NC(=O)c2nnn(CC(=O)Nc3ccccc3OC)c2N)cc1` gave MT1-MMP reporter inactive, WNV NS2B-NS3 inh -0.57 and Hsc70 ATP site 3.9%.
CCCn1nnc(NC(=O)Cc2ccccc2)n1 was read as MT1-MMP reporter inactive and Hsc70 ATP site -2.1%.
Screening COc1cc(=O)[nH]c(=O)n1CC(=O)c1ccccc1 returned MT1-MMP reporter inactive, WNV NS2B-NS3 inh 0.24 and Hsc70 ATP site -0.1%.
For C=C(C)Cn1c(CCNC(=O)C(C)C)nc2ccccc21 the results were MT1-MMP reporter inactive, WNV NS2B-NS3 inh 0.95 and Hsc70 ATP site -6.8%.
For COc1ccc(NC(=O)COC(=O)c2c(-c3ccccc3)noc2C)cc1 the results were MT1-MMP reporter inactive and Hsc70 ATP site 0.7%.
Cc1ccnc(N/N=C/c2ccco2)n1 was read as MT1-MMP reporter inactive and Hsc70 ATP site 4.3%.
`COCCn1c(SCc2nc(N)nc(Nc3ccccc3C)n2)nc2ccccc2c1=O` gave MT1-MMP reporter inactive and Hsc70 ATP site 2.6%.
CCOP(=O)(c1ccc(N(C)C)cc1)C(O)c1ccccc1 (stereo unspecified) was read as MT1-MMP reporter inactive and Hsc70 ATP site 1.6%.
For O=C(NCCC1=CCCCC1)C1CCN(S(=O)(=O)c2ccc(-n3cnnn3)cc2)CC1 the results were MT1-MMP reporter inactive, WNV NS2B-NS3 inh -0.45 and Hsc70 ATP site 2.5%.
For Cc1cnc(C(=O)Nc2ccc(-n3cnnn3)cc2)cn1 the results were MT1-MMP reporter inactive, WNV NS2B-NS3 inh -0.78 and Hsc70 ATP site 9.2%.
For CN(CCNC(=O)C1CCN(S(=O)(=O)c2cnc[nH]2)CC1)Cc1ccccc1 the results were MT1-MMP reporter inactive, WNV NS2B-NS3 inh -0.92 and Hsc70 ATP site 7.9%.
Screening Cc1ccc(S(=O)(=O)Nc2ccc(Br)cc2/C=N/n2cnnc2)cc1 returned MT1-MMP reporter inactive, WNV NS2B-NS3 inh -0.51 and Hsc70 ATP site -1.7%.
For O=C(CN1C(=O)CCS(=O)(=O)c2ccccc21)NCc1ccc(F)cc1 the results were MT1-MMP reporter inactive, WNV NS2B-NS3 inh 0.28 and Hsc70 ATP site -4.0%.
`Cc1cc(C)nc(SCC(=O)N/N=C/c2cccn2-c2cccc(C(F)(F)F)c2)n1` gave MT1-MMP reporter inactive and Hsc70 ATP site -2.4%.
Screening CN(C)Cc1c(O)ccc2oc(Cc3ccccc3)cc12 returned MT1-MMP reporter inactive, WNV NS2B-NS3 inh -0.68 and Hsc70 ATP site -1.6%.
Screening CCCCCC(=O)OC(CN1CCCCC1)CN1CCCC1=O (stereo unspecified) returned MT1-MMP reporter inactive, WNV NS2B-NS3 inh 0.61 and Hsc70 ATP site 2.0%.
CCOC(=O)Nc1cc(C)c(Cl)cc1OC was read as MT1-MMP reporter inactive, WNV NS2B-NS3 inh -0.52 and Hsc70 ATP site -9.0%.
Screening Cn1c(CNc2nc(-c3ccccc3)cs2)nnc1SCC(=O)N1CCc2ccccc21 returned MT1-MMP reporter inactive, WNV NS2B-NS3 inh 0.87 and Hsc70 ATP site 1.7%.
Screening CCCn1c(SCC(=O)Nc2ccccc2C(=O)OC)nc2c1c(=O)n(C)c(=O)n2C returned MT1-MMP reporter inactive, WNV NS2B-NS3 inh -0.35 and Hsc70 ATP site 1.6%.
Cc1ccc(-c2nnn(CC(=O)N(Cc3ccco3)C(C(=O)NC(C)(C)C)c3cccs3)n2)o1 (stereo unspecified) was read as MT1-MMP reporter inactive, WNV NS2B-NS3 inh -0.63 and Hsc70 ATP site -5.6%.
CCOc1ccc(-n2c(SCC(=O)Nc3ccc(OC)cc3OC)nc3c(c2=O)SCC3)cc1 was read as MT1-MMP reporter inactive, WNV NS2B-NS3 inh -1 and Hsc70 ATP site -3.2%.
`O=C(c1ccccc1)N1CCn2c(nc3ccccc32)C1` gave MT1-MMP reporter inactive, WNV NS2B-NS3 inh -0.53 and Hsc70 ATP site 7.6%.
Screening COc1ccc(S(=O)(=O)N2N=C(C)Oc3ccccc3C2=O)cc1 returned MT1-MMP reporter inactive and Hsc70 ATP site 4.1%.
Screening CCOC(=O)c1c(C)cccc1OCC(N)=O returned MT1-MMP reporter inactive, WNV NS2B-NS3 inh 0.4 and Hsc70 ATP site 0.8%.
For COc1ccc(-c2noc(Cc3ccccc3OC)n2)cc1 the results were MT1-MMP reporter inactive, WNV NS2B-NS3 inh -0.58 and Hsc70 ATP site -0.8%.
Cc1ccc(C(C(=O)NC2CCCCC2)N(C(=O)c2csnn2)C2CC2)o1 (stereo unspecified) was read as MT1-MMP reporter inactive, WNV NS2B-NS3 inh 0.26 and Hsc70 ATP site 2.8%.
COCCn1nnnc1C(c1ccc2ncccc2c1)N1CCN(c2ccccc2F)CC1 (stereo unspecified) was read as MT1-MMP reporter inactive, WNV NS2B-NS3 inh -0.42 and Hsc70 ATP site -1.6%.
Screening N#C/C(=C/N1CCOCC1)c1ccccc1 returned MT1-MMP reporter inactive, WNV NS2B-NS3 inh -0.7 and Hsc70 ATP site 2.1%.
COc1cc(-c2nnc(SCC#CCO)o2)cc(OC)c1OC was read as MT1-MMP reporter inactive, WNV NS2B-NS3 inh -0.13 and Hsc70 ATP site 2.4%.
Cc1cc(=O)n2c(c1C#N)SC1CCCCC12O (stereo unspecified) was read as MT1-MMP reporter inactive, WNV NS2B-NS3 inh -0.13 and Hsc70 ATP site 7.8%.
`Cn1c(=O)c2c(SCC(=O)N3CCOCC3)nc(CC(C)(C)C)nc2n(C)c1=O` gave MT1-MMP reporter inactive, WNV NS2B-NS3 inh 2.3 and Hsc70 ATP site -1.3%.
For C1CCC(C23CC4CC(CC(C4)C2)C3)NC1 (stereo unspecified) the results were MT1-MMP reporter inactive and Hsc70 ATP site 4.4%.
Screening O=C(COC(=O)c1cc([N+](=O)[O-])ccc1NCc1ccccc1)NC1CCCc2ccccc21 (stereo unspecified) returned MT1-MMP reporter inactive and Hsc70 ATP site 4.3%.
For O=C1c2ccsc2SCCN1Cc1ccc(Cl)cc1Cl the results were MT1-MMP reporter inactive and Hsc70 ATP site 1.1%.
Screening Cc1cc(C)nc(NC(=O)c2c(-c3ccccc3Cl)noc2C)n1 returned MT1-MMP reporter inactive, WNV NS2B-NS3 inh -0.76 and Hsc70 ATP site -7.2%.
For CCC1=NC(c2ccccc2Cl)N(O)C1(C)C (stereo unspecified) the results were MT1-MMP reporter inactive, WNV NS2B-NS3 inh -1 and Hsc70 ATP site 2.8%.
Screening COc1cccc(C2CC(c3cccc(Br)c3)n3nc(N)nc3N2)c1 (stereo unspecified) returned MT1-MMP reporter inactive, WNV NS2B-NS3 inh -0.8 and Hsc70 ATP site 1.9%.

Of the compounds above, these have a CF3 group.
Screening COc1ccc2oc(C(F)(F)C(F)(F)F)cc(=O)c2c1 returned MT1-MMP reporter inactive and Hsc70 ATP site 1.7%.
`Cc1cc(C)nc(SCC(=O)N/N=C/c2cccn2-c2cccc(C(F)(F)F)c2)n1` gave MT1-MMP reporter inactive and Hsc70 ATP site -2.4%.

(cont.)
Cc1cc(Nc2ncc(Cl)cc2Cl)n[nH]1 was read as MT1-MMP reporter inactive, WNV NS2B-NS3 inh 0.63 and Hsc70 ATP site 0.5%.
CCOc1ccc(OCC)c(NC(=O)C2CCCN(c3ncccn3)C2)c1 (stereo unspecified) was read as MT1-MMP reporter inactive, WNV NS2B-NS3 inh 0.53 and Hsc70 ATP site -1.2%.
For COc1ccc2[nH]cc(CCN3C(=O)CCC3=O)c2c1 the results were MT1-MMP reporter inactive and Hsc70 ATP site 4.6%.
Screening CCCCCC(=O)Nc1cccc(-c2nc3ncccc3o2)c1 returned MT1-MMP reporter inactive, WNV NS2B-NS3 inh 0.15 and Hsc70 ATP site 3.9%.
`CC1(C)CC(=O)C=C(N=CC2=C(O)CC(C)(C)CC2=O)C1` gave MT1-MMP reporter inactive, WNV NS2B-NS3 inh -0.04 and Hsc70 ATP site 3.1%.
CN(C)c1cccc(NC2=CC(=[N+]3CCOCC3)CC(C)(C)C2)c1 was read as MT1-MMP reporter inactive and Hsc70 ATP site 7.5%.
`CCN(CC)C(=O)c1sc2nc(-c3ccccn3)[nH]c(=O)c2c1C` gave MT1-MMP reporter inactive, WNV NS2B-NS3 inh 3.9 and Hsc70 ATP site 2.2%.
Cc1cc(Cl)c(S(=O)(=O)N2CCN(c3ccccc3)CC2)cc1OCC(N)=O was read as MT1-MMP reporter inactive and Hsc70 ATP site 3.3%.
For O=C(O)c1ccc(-c2ccccc2Cl)o1 the results were MT1-MMP reporter inactive, WNV NS2B-NS3 inh 0.35 and Hsc70 ATP site 4.1%.
For Cc1ccc(C(=O)CSc2nnc(-c3ccccc3)n2-c2ccccc2)o1 the results were MT1-MMP reporter inactive, WNV NS2B-NS3 inh -0.28 and Hsc70 ATP site 0.1%.
CCOC(=O)C1CCN(c2c(NCCCN(CC)Cc3ccccc3)c(=O)c2=O)CC1 was read as MT1-MMP reporter inactive, WNV NS2B-NS3 inh -0.27 and Hsc70 ATP site 0.8%.
`COCc1nnc(NC(=O)c2ccco2)s1` gave MT1-MMP reporter inactive, WNV NS2B-NS3 inh 0.19 and Hsc70 ATP site 0.8%.
`CC(NC(=O)c1ccccc1NC(=O)c1ccco1)C(=O)O` (stereo unspecified) gave MT1-MMP reporter inactive, WNV NS2B-NS3 inh -0.16 and Hsc70 ATP site 7.2%.
`CCOC(=O)CC(=O)CSc1[nH]c(=O)cc(C)c1C#N` gave MT1-MMP reporter inactive, WNV NS2B-NS3 inh 0.29 and Hsc70 ATP site -2.8%.
For Cc1nn(-c2ccccc2)c2sc(C(=O)OCN3C(=O)c4ccccc4C3=O)cc12 the results were MT1-MMP reporter inactive, WNV NS2B-NS3 inh -0.63 and Hsc70 ATP site 1.5%.

As a working copy, 7 of the compounds above:
For O=C(O)c1ccc(-c2ccccc2Cl)o1 the results were MT1-MMP reporter inactive, WNV NS2B-NS3 inh 0.35 and Hsc70 ATP site 4.1%.
For Cc1ccc(C(=O)CSc2nnc(-c3ccccc3)n2-c2ccccc2)o1 the results were MT1-MMP reporter inactive, WNV NS2B-NS3 inh -0.28 and Hsc70 ATP site 0.1%.
CCOC(=O)C1CCN(c2c(NCCCN(CC)Cc3ccccc3)c(=O)c2=O)CC1 was read as MT1-MMP reporter inactive, WNV NS2B-NS3 inh -0.27 and Hsc70 ATP site 0.8%.
`COCc1nnc(NC(=O)c2ccco2)s1` gave MT1-MMP reporter inactive, WNV NS2B-NS3 inh 0.19 and Hsc70 ATP site 0.8%.
`CC(NC(=O)c1ccccc1NC(=O)c1ccco1)C(=O)O` (stereo unspecified) gave MT1-MMP reporter inactive, WNV NS2B-NS3 inh -0.16 and Hsc70 ATP site 7.2%.
`CCOC(=O)CC(=O)CSc1[nH]c(=O)cc(C)c1C#N` gave MT1-MMP reporter inactive, WNV NS2B-NS3 inh 0.29 and Hsc70 ATP site -2.8%.
For Cc1nn(-c2ccccc2)c2sc(C(=O)OCN3C(=O)c4ccccc4C3=O)cc12 the results were MT1-MMP reporter inactive, WNV NS2B-NS3 inh -0.63 and Hsc70 ATP site 1.5%.

Screens from PubChem BioAssay.
